Polio RdRp inh – poliovirus RNA polymerase inhibition | poliovirus polymerase elongation, fluorescence polarization; active compounds read low | % elongation, % (compound at 16.7 µg/mL) | 150,000 tested, 0.66% active | AID 588519; in the data active means % elongation below about 90%; further: some results filed as inactive read as strong as hits
Target sequence (P03300 1749-2209 limits assumed): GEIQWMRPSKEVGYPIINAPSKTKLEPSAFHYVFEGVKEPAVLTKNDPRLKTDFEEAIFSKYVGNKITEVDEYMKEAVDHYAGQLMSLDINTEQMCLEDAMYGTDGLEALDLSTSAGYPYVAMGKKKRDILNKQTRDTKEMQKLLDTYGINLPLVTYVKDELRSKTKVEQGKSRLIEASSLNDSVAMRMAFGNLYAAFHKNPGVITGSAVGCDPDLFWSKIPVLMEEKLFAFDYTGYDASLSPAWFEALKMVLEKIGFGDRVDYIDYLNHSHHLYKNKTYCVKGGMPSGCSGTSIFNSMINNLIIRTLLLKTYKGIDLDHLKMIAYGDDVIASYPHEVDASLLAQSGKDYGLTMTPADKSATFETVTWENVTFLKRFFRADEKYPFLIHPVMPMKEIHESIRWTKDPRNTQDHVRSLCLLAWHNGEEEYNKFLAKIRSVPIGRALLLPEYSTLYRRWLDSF
Mtb MbtI inh – blocks the Mycobacterium tuberculosis siderophore enzyme MbtI. 100,000 tested, 0.89% active. purified MbtI enzyme, fluorescence intensity read-out. inhibition, %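 (about 17 µg/mL by stock and volumes)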. AID 493033;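 active means above 50% in both replicates, above 80% if mildly self-fluorescent; inactive means the rest, strongly fluorescent compounds included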;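 further: 0% = mean of negative and 100% = mean of positive controls; one replicate is shown; some compounds called inactive have numbers as strong as hits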
Target sequence (P9WFX0 whole entry, looked up): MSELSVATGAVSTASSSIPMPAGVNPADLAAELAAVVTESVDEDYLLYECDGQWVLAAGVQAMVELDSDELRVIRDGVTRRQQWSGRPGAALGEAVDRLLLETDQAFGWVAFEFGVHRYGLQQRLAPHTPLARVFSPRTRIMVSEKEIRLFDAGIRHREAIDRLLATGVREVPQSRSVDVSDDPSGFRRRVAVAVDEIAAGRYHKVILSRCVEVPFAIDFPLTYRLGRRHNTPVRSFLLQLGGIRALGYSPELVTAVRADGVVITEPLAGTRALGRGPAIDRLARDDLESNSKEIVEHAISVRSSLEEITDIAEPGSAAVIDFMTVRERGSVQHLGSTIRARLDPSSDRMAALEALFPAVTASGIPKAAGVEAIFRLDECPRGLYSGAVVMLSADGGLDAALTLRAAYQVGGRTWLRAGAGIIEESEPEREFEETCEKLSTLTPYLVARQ
MenB inh – Mtb MenB enzyme inhibition; P9WNP5; inhibition, %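 (about 12 µg/mL by stock and volumes)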; AID 540299; 100,000 tested, 0.43% active; MenB enzyme assay, absorbance read-out; some hits fall short of the stated cut;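 active means mean of two replicates above 30%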;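 further: 0% = no compound and 100% = wells with inactive enzyme; the first replicate is given; strong numbers were not always called active; inactives centre near -10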
Polio RdRp inh intensity – also measured in Polio RdRp inh; calls as there; % elongation; measured here: total intensity read-out; formula for this scale not given here;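 total fluorescence in place of polarization; lower means less elongation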
* = called active by the depositor; i = inactive; / = not tested or not shown.

SMILES	Polio RdRp inh	Polio RdRp inh intensity	Mtb MbtI inh	MenB inh
Cc1cc(=O)n2nc(CN3CCN(C4CCS(=O)(=O)C4)CC3)sc2n1 (stereo unspecified)	100	130	1	-9
N#Cc1cc(Oc2ccc(C(=O)c3ccccc3)cc2)nc2ccccc12	104	106	1	4
O=C(NCC(=O)N1CCC(n2c(=O)[nH]c3ccccc32)CC1)c1ccc2ccccc2c1	101	97	13	-9
O=C(O)CCc1ccc(-c2cccs2)n1NC(=O)c1cccs1	100	99	18	1
CN(C)C(=O)C(OC(=O)c1cn(C)c2ccccc12)c1ccccc1 (stereo unspecified)	105	109	-1	-8
O=C(Nc1ccccc1)c1ccn(C(=O)c2ccccc2)n1	108	106	/	3
Nc1nc2sc3c(c2cc1C(=O)NCC(=O)O)CCCC3	102	103	18	-14
CC(=O)N(CCOc1ccccc1)CCOc1ccccc1	109	108	/	-1
CCn1c(=O)cc(OCC(=O)N2CCCC2)c2ccccc21	99	102	5	-9
CCC1CCCCN1C(=O)CSc1nnc(CNC(=O)c2ccco2)o1 (stereo unspecified)	100	102	-2	16
CC(C(=O)N1CCCC1)N1CCN(c2ccc(F)cc2)CC1 (stereo unspecified)	98	102	-4	41*
C=CCC(NC(C)c1ccco1)c1ccccc1 (stereo unspecified)	101	103	-2	-36
COc1ccc(C(=O)OCC(=O)c2cc3c4c(c2)CC(=O)N4CCC3)cc1Br	102	98	10	4
CCCn1c(=NC(=O)c2cccs2)sc2cc(S(C)(=O)=O)ccc21	101	105	-21	0
NC(=O)NN=C1c2cc(S(=O)(=O)NCCO)ccc2-c2ccc(S(=O)(=O)NCCO)cc21	100	100	-1	-2

Retrieved one by one from the entries so far:
SMILES	Polio RdRp inh	Polio RdRp inh intensity	Mtb MbtI inh	MenB inh
O=C(Nc1ccccc1)c1ccn(C(=O)c2ccccc2)n1	108	106	/	3
CCCn1c(=NC(=O)c2cccs2)sc2cc(S(C)(=O)=O)ccc21	101	105	-21	0

(further entries)
SMILES	Polio RdRp inh	Polio RdRp inh intensity	Mtb MbtI inh	MenB inh
O=C(CCC(=O)N1CCC(c2ccccc2)=N1)N1CCN(c2ccccc2)CC1	100	92	10	-31
CCC1CCCCN1C(=O)Cn1c(=O)n(Cc2ccccc2)c(=O)c2c3c(sc21)CCC3 (stereo unspecified)	101	108	-5	2
CC(C)CN(CC(C)C)C(=O)C1c2ccccc2Oc2ccccc21	103	106	-11	-14
[O-][n+]1c2c(nn1-c1ccccc1)CCc1ccccc1-2	103	106	2	-32
COC(=O)c1cn(CC(=O)Nc2ccc(OC)cc2)c2ccccc12	104	103	-1	-57
O=C(Oc1ccc(-c2csnn2)cc1)c1cc(C(F)(F)F)cc(C(F)(F)F)c1	106	107	-8	3
CC(C)/C=c1/[nH]c(=O)/c(=C/c2ccccc2)[nH]c1=O	106	111	/	3
N#C/C(C(=O)Nc1ccc(Cl)cc1)=C1/SCC(=O)N1c1ccccc1	101	105	63	/
Cc1cc2ncc(-c3ccnc(SCc4c(Cl)cccc4Cl)n3)c(C)n2n1	107	107	27	-5
CC1=C2CCC3C(CC[C@]4(C)C(=O)CCC34)[C@@]2(C)CCC1=O (stereo partly specified)	100	101	-1	-1
CC1CCCCN1CCNC(=O)C1c2ccccc2C(=O)N(C2CCCC2)C1c1cccs1 (stereo unspecified)	102	98	-5	-2
O=c1ccc(-c2ccc(S(=O)(=O)NCCC3=CCCCC3)s2)n[nH]1	104	103	-8	-21
CCCCn1c(CCc2ccc(S(=O)(=O)N3CCOCC3)cc2)nc2cc(S(N)(=O)=O)ccc21	100	95	5	-10
Cc1ccc(S(=O)(=O)c2cnc(SCC(=O)N3CCCc4ccccc43)[nH]c2=O)cc1	103	106	0	-12
Cc1ccn2c(=O)c(NC(=O)C3CCCCC3)c(C)nc2c1	105	108	-1	-24

Following part:
SMILES	Polio RdRp inh	Polio RdRp inh intensity	Mtb MbtI inh	MenB inh
CCOC(=O)/C(C#N)=C1\C(=O)Nc2ccccc21	101	109	27	18
CCCN1Cc2cccc(C(=O)NC3CCCCCC3)c2C1=O	99	103	-8	2
C=CCN1C(=O)c2oc3ccccc3c(=O)c2C12C(=O)N(C)c1ccccc12 (stereo unspecified)	101	101	-18	-4
O=C1S/C(=C\c2ccccc2)C(=O)N1CN1CCOCC1	100	102	12	-10
Cc1ccc2[nH]c3c(c2c1)CCCC3NC1CCCCC1 (stereo unspecified)	104	107	9	-8
S=C1NCN(Cc2ccncc2)CN1	103	108	-4	1
CC(C)c1ccccc1NC(=O)C1CCCCC1	100	101	-28	-28
CC(Nc1nc(N2CCNCC2)nc2ccccc12)c1ccccc1 (stereo unspecified)	101	101	106	-4
C=CCn1c(=O)c2ccccc2n2c(SCC(N)=O)nnc12	103	105	4	1
COC(=O)CNC(=O)c1ccco1	/	/	-9	5
COc1ccc(N(Cc2nc3ccccc3o2)S(=O)(=O)c2cc(C)ccc2C)cc1	103	104	-4	-50
COC(=O)c1cc(-c2ccccc2)c(N2CCCC2)s1	102	105	1	4
Cc1noc(C)c1CSCC(=O)Nc1nccs1	104	109	1	3
Cc1oncc1C(=S)Nc1ccccc1	99	107	8	-3
Cc1ccccc1NC(=O)c1c[nH]c2ccccc2c1=O	108	109	/	-49

New compounds follow
SMILES	Polio RdRp inh	Polio RdRp inh intensity	Mtb MbtI inh	MenB inh
CCCSc1nc2c(c(-c3ccco3)c1C#N)CCCC2	101	101	17	28
Cn1c(=NC(=O)CSCC(=O)N2CCCC2)sc2cc(Br)ccc21	102	105	9	-24
CCC(C)OC(=O)C(C)Oc1ccc2c3c(c(=O)oc2c1)CCC3 (stereo unspecified)	100	98	-2	-34
N#CC1=C(N)N=C(SCC(=O)Nc2nccs2)C(C(N)=O)C12CCCCC2 (stereo unspecified)	101	102	6	-38
Cc1ccc(C)c(-n2nnnc2SCC(=O)Nc2cc(C(N)=O)cc(C(N)=O)c2)c1	102	107	-59	-4
COC(=O)c1sccc1NC(=O)CC1(CC(=O)O)CCCC1	101	94	14	14
CCOC(=O)/C(C#N)=C1\SCC(=O)N1c1ccc(OC)cc1	107	107	12	-68
CC(CC#N)C(=O)c1ccc(Cl)cc1 (stereo unspecified)	100	106	-12	/
Cc1ccccc1NC(=O)Cn1c(=O)n(CCCS(=O)(=O)C2CCCCC2)c(=O)c2ccccc21	104	105	-7	-16
COc1ccc2c(c1)CCc1c(C(=O)Nc3cc(C)n(Cc4ccc(Cl)cc4)n3)noc1-2	102	103	-5	-15
CCn1c(-c2ccccc2)c(C(=O)CSc2nnc(-c3cccnc3)n2N)c2ccccc21	108	113	1	-16
CC(C)C(=O)Nc1nc(OC(=O)N(c2ccccc2)c2ccccc2)c2[nH]cnc2n1	106	113	/	-8
COC(=O)c1ccc(CSc2ncnc3[nH]ncc23)cc1	95	86	22	-32
NCCc1nc2ccc(Cl)cc2[nH]1	103	101	-10	-67
COC(=O)c1ccc(COC(=O)C23CC4CC(CC(O)(C4)C2)C3)o1	107	101	-28	-13

No new results follow: an excerpt of the list.
SMILES	Polio RdRp inh	Polio RdRp inh intensity	Mtb MbtI inh	MenB inh
COC(=O)c1ccc(CSc2ncnc3[nH]ncc23)cc1	95	86	22	-32
NCCc1nc2ccc(Cl)cc2[nH]1	103	101	-10	-67
COC(=O)c1ccc(COC(=O)C23CC4CC(CC(O)(C4)C2)C3)o1	107	101	-28	-13

Further compounds
Below each SMILES – Polio RdRp inh	Polio RdRp inh intensity	Mtb MbtI inh	MenB inh
- COc1ccc(C(=O)Cc2ccc(OC)c(OC)c2)c(OC)c1
→ 98	99	7	-34
- N#Cc1ccc(OC(=O)Cc2coc3cc4c(cc23)CCC4)cc1
→ /	/	-2	4
- O=C(Nn1cnc2c(cnn2-c2ccccc2)c1=O)c1ccccc1
→ 100	102	-4	-17
- COC(=O)c1cnn2c(C(F)(F)F)cc(-c3ccccc3)nc12
→ 101	101	-243	-5
- c1ccc(CNC2CCCC2)nc1
→ 103	108	8	-77
- O=C(COC(=O)c1ccccc1Cl)NC1CCCC1
→ 106	106	-10	-2
- C=CCOc1ccccc1CN1CCCCC1
→ 101	102	1	-24
- COc1ccc(-c2nnc(SCCN3C(=O)c4ccccc4C3=O)o2)cc1
→ 105	101	-14	-37
- CNC(=O)C(C)n1c2ccccc2c2nc(=O)cc(C)n21 (stereo unspecified)
→ 103	103	76	6
- Cc1ccc(NC(=O)CN2C(=O)CC(c3ccccc3)C2=O)cc1C (stereo unspecified)
→ 99	103	11	-3
- O=C(Cn1ncc2c([nH]c3ccccc32)c1=O)Nc1ccc(F)cc1F
→ 104	102	-4	-27
- COc1ccc(CNCCN(C)C)cc1
→ 106	105	/	8
- COc1ccccc1N(Cc1c(C)noc1C)S(=O)(=O)c1cccs1
→ 107	109	-13	-43
- O=C(Oc1ccc2ccccc2c1)N1CCOCC1
→ 102	100	-10	-7
- CCn1c(=O)cc(SCC(=O)N2CCCCC2)c2ccccc21
→ 101	104	19	-11
- Cc1nnc(SCc2cccc(C(=O)c3ccccc3)c2)[nH]c1=O
→ 100	101	55*	-15
- N#C/C(=C(/O)C(F)(F)F)c1nc2ccccc2[nH]1
→ 102	95	18	-21
- CN(CCN1CCOCC1)C1CCN(C(=O)CNC(=O)/C=C/c2cccs2)CC1
→ 101	102	11	-14
- CCOC(=O)COc1ccccc1/C=N/O
→ 102	104	-22	-6
- CC(C)(C)c1nn2cnnc2n(/N=C/c2ccccc2)c1=O
→ 105	100	5	-38
- COCCn1c(SCC(=O)c2ccc3c(c2)CCCN3S(C)(=O)=O)nc2ccccc21
→ 109	122	2	-25
- CCCCC1(C)OC(=O)C(=Cc2ccc(OCC)c(OC)c2)C(=O)O1 (stereo unspecified)
→ 105	106	3	-10
- CCc1ccc(/C=N/N2CCOCC2)cc1
→ 101	107	0	-1
- O=c1c2cc3c(=O)n(Cc4cccs4)ccc3nc2ccn1Cc1cccs1
→ 98	104	5	-1
- O=C(c1ccccc1)N1CCC(O)(c2cccnc2)CC1
→ 101	102	0	-19
- O=C(Oc1cc(=O)oc2c1c(=O)n1c3c(cccc23)CC1)c1ccccc1
→ 107	106	-2	-2
- CC(C)C(NC(=O)c1ccccc1)C(=O)N1CCCCCC1 (stereo unspecified)
→ 102	107	-10	/
- CCc1c(C)nc2cc(-c3cc(OC)cc(OC)c3)nn2c1NCCCN1CCOCC1
→ 102	102	7	-30
- O=C1CC(c2ccc(S(=O)(=O)NCCOc3ccccc3)cc2)CN1 (stereo unspecified)
→ 103	100	-7	-2
- O=S1(=O)CCN=C2C(Cl)=CC(C(F)(F)F)=CN21
→ 102	104	96	/

The listing continues:
Below each SMILES – Polio RdRp inh	Polio RdRp inh intensity	Mtb MbtI inh	MenB inh
- O=C(N/N=C/c1ccccc1)Nc1ccccc1
→ 104	101	1	11
- O=C(Cc1ccccc1)Nn1cnc2c(cnn2-c2ccccc2)c1=O
→ 101	101	0	-13
- OC(COC(c1ccccc1)c1ccccc1)CN1CCCCC1 (stereo unspecified)
→ 105	102	-4	-18
- Cc1nn(-c2ccc(Cl)cc2)c2sc(C(=O)N3CCCCC3)cc12
→ 105	88	-6	0
- CCOC(=O)Cn1c(=O)sc2ccccc21
→ 103	99	3	12
- CCS(=O)(=O)CC(C)C
→ 104	103	-6	-45
- O=C(c1ccc(C(=O)N2CCOCC2)s1)N1CCOCC1
→ 99	90	/	-28
- O=C(N/N=C1/CCSc2ccc(F)cc21)C1CC1
→ 102	109	-3	-7
- O=C(c1ccc(Cl)cc1)N1c2ccccc2OC1c1ccc2c(c1)OCO2 (stereo unspecified)
→ 104	104	0	15
- COC(CN(C)S(=O)(=O)c1ccc(Br)cc1)OC
→ 105	101	-18	-12
- CN(C1CCCCC1)S(=O)(=O)c1cn(C)c(=O)n(C)c1=O
→ 105	110	-3	-1
- CCNC(=O)c1cccc(OC(C)C)c1
→ 103	103	-12	-22
- NC(=O)CN(CC(N)=O)S(=O)(=O)c1ccccc1
→ 101	103	0	10
- CC1CN(S(=O)(=O)c2cccc(C(=O)OCC(N)=O)c2)CC(C)O1 (stereo unspecified)
→ 102	117	2	-8
- C1=Cc2ccccc2N2CC(c3ccc4ccccc4c3)N=C12 (stereo unspecified)
→ 109	109	2	-8
- N#C/C(=C\c1cc(Br)c(O)c(Br)c1)C(N)=O
→ 100	87	16	i
- COC(=O)c1ccc(NC(=S)N(CC(C)C)CC(C)C)cc1
→ 94	107	/	-24
- CC1(C)Cc2ccccc2/C(=C(/C#N)c2ccccc2)N1
→ 98	101	7	-27
- CCCCS(=O)CSc1nc(-c2ccc(OC)cc2)cc(-c2ccccc2)c1C#N (stereo unspecified)
→ 102	109	29	-29
- CC(C)(C)NCC(O)COc1ccccc1C1CCCC1 (stereo unspecified)
→ 99	103	5	4
- Cc1ccc(C(=O)CSc2[nH]c(=O)ncc2C)cc1
→ 101	101	31	-22
- O=C(O)CCCCn1c(=S)[nH]c2ccsc2c1=O
→ 100	101	16	0
- CCC(Sc1nnc(N)s1)C(=O)Nc1ccc(S(N)(=O)=O)cc1 (stereo unspecified)
→ 102	100	-1	2
- Cc1nc2scc(-c3ccccc3)c2c(=O)n1/N=C/c1ccco1
→ 104	106	13	9
- O=C(NCc1cccnc1)C1c2ccccc2C(=O)N1C1CCCC1 (stereo unspecified)
→ 103	103	-9	-12
- COc1ccc(OC)c(C(O)c2coc3ccc(O)c(CN(C)C)c23)c1 (stereo unspecified)
→ 104	103	-10	-56

Compound activity deposited in PubChem by ICCB-Longwood Screening Facility, Harvard Medical School.
